# GLA inh pH 4.5 = inhibitors of human alpha-galactosidase A at pH 4.5; P06280; 230,000 tested, under 10 active; purified enzyme, 4-MU-alpha-Gal fluorescence, pH 4.5; activity change, negative = inhibition, % at 105 µM; AID 1467; inconclusive = small, poorly fitted or top-dose-only inhibition, or a rising curve; inactive = flat fitted curve, though single readings scatter; no compound was filed as active;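 further: 0% = full activity with enzyme and -100% = basal without enzyme; dose as in the result columns while the protocol names 77 µM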
# Target sequence (P06280 whole entry, looked up): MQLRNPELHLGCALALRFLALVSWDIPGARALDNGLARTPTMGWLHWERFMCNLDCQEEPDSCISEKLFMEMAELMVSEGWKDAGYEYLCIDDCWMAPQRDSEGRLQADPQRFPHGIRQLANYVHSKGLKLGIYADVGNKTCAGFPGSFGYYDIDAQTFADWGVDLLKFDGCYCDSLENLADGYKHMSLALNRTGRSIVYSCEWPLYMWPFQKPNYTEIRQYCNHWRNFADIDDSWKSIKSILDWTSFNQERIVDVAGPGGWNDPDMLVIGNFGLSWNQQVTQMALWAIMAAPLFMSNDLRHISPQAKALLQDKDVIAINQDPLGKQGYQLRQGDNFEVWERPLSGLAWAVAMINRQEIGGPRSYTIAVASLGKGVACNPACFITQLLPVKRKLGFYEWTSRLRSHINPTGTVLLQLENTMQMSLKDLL
# miR-21 FLuc = raises the signal of a miR-21 reporter; HeLa miR-21 FLuc reporter, luciferase, 48 h; Potency, µM (highest dose often 38.3 µM), for inactives: top-dose reporter change, positive = more light; 340,000 tested, under 10 active; AID 2288; active = well fitted rising curve with a large enough effect; inconclusive = small, poorly fitted or top-dose-only effect; inactive = no such curve, though single readings can be large or run the other way;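 further: % of control where 0% means no effect; miR-21 action dims this reporter so a rising signal means less miR-21 action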
#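 HeLa cells stably expressing CMV-driven firefly luciferase with a downstream miR-21 binding sequence, endogenously expressing miR-21, were treated with titrations (up to about 40uM final) for 48 hours at 37 degree Celsius. Luciferase luminescence was read after lysis.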
# Rango-impB inh = prevents formation of the Rango-importin beta complex. Q14974. Potency, µM (top dose mostly 92.2 µM), inactives show at the top dose inhibition of complex formation. AID 540263. Rango CFP/YFP FRET sensor + importin beta, 45 min. 340,000 compounds, 0.031% hits; active = rising FRET ratio curve, often small or poorly fitted; inconclusive = mostly compound fluorescence or quenching in the first reads; inactive = flat curves in all reads;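 further: potency means the concentration at half of the fitted maximal effect; 0% = DMSO wells and 100% = buffer wells lacking importin beta; nearly all actives have a fitted effect of over 15% in size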
#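 Inhibition scored from the CFP 486 nm/YFP 530 nm FRET ratio 45 min after adding 0.125 microM importin beta to 50 nM Rango biosensor preincubated 5 min with compound (room temperature, PBS with DTT, Tween-20, BSA). No-importin wells as positive control.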
# Rango release inh = prevents RanGTP from dissociating the Rango-importin beta complex; O95149+P62826; Biochemical FRET Rango-importin beta, RanGTP-induced dissociation; Potency, µM (series often up to 46.1 µM), inactives show at the highest dose activity change, negative = inhibition; 340,000 compounds, 0.071% hits; AID 540253; active means falling FRET ratio curve, often poorly fitted, with flat reads before Ran was added; inconclusive means other falling curves, or compound fluorescence or quenching; inactive means flat or rising ratio curve;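 further: potency means the concentration at half of the fitted maximal effect; % of control where 0% means no effect; nearly all actives have a fitted effect of over 45% in size; -100% = wells without RanGTP and RCC1; the record marks most hits as doubtful in a second field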
#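 Recombinant Rango FRET biosensor (EYFP–snurportin 1 IBB–cerulean CFP10) at 0.1 uM premixed with 0.25 uM importin beta in PBS, 1 mM DTT, 0.02% Tween-20, 0.1% BSA. Compound added 5 min; RanGTP-RCC1 (0.6 uM Ran, 2 mM GTP, 0.2 uM RCC1) then triggers release, read at 45 min.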
# An asterisk follows results filed as active; ? = inconclusive; / = no result given; & = joins results of further samples; [ ] = another dose, or the depositor's remark. Only part of the results is shown, so the mix of outcomes need not match the whole.
# Results follow in this order: GLA inh pH 4.5 | miR-21 FLuc | Rango-impB inh | Rango release inh
COc1ccccc1C(=O)NCC(=O)N1CCN(S(=O)(=O)c2ccc3c(c2)OCCO3)CC1
  / | / | -2.7% | -31.1%
CC(C)N(C(=O)[C@H]1C[C@H](CC(=O)NCCN2CCOCC2)C(=O)N2CCc3c([nH]c4ccc(Cl)cc34)[C@]12C)C(C)C
  / | / | -1.8% | -1.0%
CP(=O)(Nc1cc(Cl)ccc1Cl)c1nc2c(s1)CCCC2 (stereo not given)
  5.7 | 0.4% | -4.1% | 20.9%
CCN(CC)c1ccc(/C=N/Nc2nc(C)cc(C)n2)c(O)c1
  5.7 | 8.3% | ? | ?
CC[C@H](C)[C@H](NC(=O)OCc1ccccc1)C(=O)OCC(=O)N1CCN(c2ccc(F)cc2)CC1
  / | / | -0.3% | -1.8%
COc1ccc(OC)c(CC(NC(C)=O)C(=O)NC2CCN(c3c(Cc4ccccc4)c(C)nc4ncnn34)CC2)c1 (stereo not given)
  -2.5 | 1.6% | -2.5% | -7.8%
COc1ccccc1NC(=O)c1ccc(NC(=O)CSc2nncn2C)cc1
  -5.6 | -12.7% | -1.0% | -19.0%
CN(C)c1ccc(/C=C2\CCCCC2=O)cc1
  -3.1 | -62.9% | ? | ?
Cc1c(N=Cc2nc3ccccc3n2C)c(=O)n(-c2ccccc2)n1C
  -0.9 | 0.6% | 5.8% | 34.5%
CCN(CC)CCN(Cc1cc2cc3c(cc2[nH]c1=O)OCO3)C(=S)NCCOC
  / | 0.9% | -1.4% | -5.3%
Cc1ccc(-c2nnc(SCC(=O)N3CCN(c4ccccc4)CC3)o2)cc1
  -2.3 | -4.6% | 0.5% | 2.4%
CCCNC(=O)[C@H](Cc1c[nH]c2ccccc12)NC(=O)c1ccccc1Cl
  -0.4 | -28.7% | 0.0% | -13.3%
CCOC(=O)CN1C(=O)C(=O)c2cccc(C)c21
  -0.2 | -9.1% | -2.7% | 3.2%
Cc1cccc(N2C(=O)Cc3ccccc3C2=O)c1
  / | -2.4% | ? | -22.6%
COc1ccc([C@@H]2CC(=O)c3c(O)cc(O)cc3O2)cc1O
  -2.7&-3.1 | / | 4.1% | -2.8%
CCCCOc1ccc(C(=O)NCC(=O)NNC(=O)c2ccco2)cc1
  / | / | -0.8% | -8.2%
CN(C)c1ccc(C(C(=O)NC2CCCCC2)N(Cc2ccco2)C(=O)c2snc(C(N)=O)c2N)cc1 (stereo not given)
  / | 23.9% | -2.9% | -14.1%
COc1ccc(/C=N/Nc2nc3ccccc3[nH]2)c(OC)c1OC
  -8.1 | -17.8% | -0.1% | 5.9%
CC1CN(C(=O)COC(=O)c2ccc(S(=O)(=O)N(C)C)cc2)CC(C)O1 (stereo not given)
  / | -4.1% | -2.8% | -0.8%
CC1CCN(Cc2c(C(=O)N/N=C/c3cccc(C(F)(F)F)c3)nnn2-c2nonc2N)CC1
  / | 5.5% | 0.2% | 9.8%
COCCn1c(SCC(=O)NCCc2ccccc2)nc2c([nH]c3ccccc32)c1=O
  / | 6.3% | -2.1% | -11.6%
O=C(Nc1nncs1)C12CC3CC(CC(Cl)(C3)C1)C2
  / | -0.5% | 0.4% | 2.9%
O=C(COC(=O)c1ccccn1)NNC(=O)c1ccc([N+](=O)[O-])cc1
  / | / | 1.1% | -8.7%
CCOC(=O)Cn1cnc2c(nnn2-c2ccc(OC)cc2)c1=O
  5.6 | -0.5% | -2.4% | -4.0%
Cc1c(C)c2c(OCC(=O)N[C@@H](CC(C)C)C(=O)O)cc3c(c2oc1=O)CCC(C)(C)O3
  / | -3.9% | -1.4% | 5.6%
O=C(O)CSc1nnc(CNc2ccccc2Cl)n1-c1ccccc1
  -4.6 | 0.6% | -2.6% | -13.3%
Cn1cc(C(=O)C(=O)N2CCc3ccccc32)c2ccccc21
  / | -9.9% | -1.1% | -6.5%
CC(NC(=O)CCC(=O)NCc1ccc(F)cc1)c1ccccc1 (stereo not given)
  / | 0.0% | 2.5% | -3.0%
CCCCCn1nc(C)c2c(C)cc(=O)[nH]c21
  -1.3 | -15.9% | 4.2% | 0.8%
CC1(C)CC(=O)C=C(NCCN2CCN(C(=S)NC3CCCCC3)CC2)C1
  -1.6 | 0.7% | -2.8% | 1.6%

# Further results
# Results follow in this order: GLA inh pH 4.5 | miR-21 FLuc | Rango-impB inh | Rango release inh
C/C(=N\OC(=O)c1c(-c2ccccc2Cl)noc1C)c1ccncc1
  -0.2 | 0.0% | -1.1% | 15.4%
CCOc1ccccc1NC(=O)CCNC(=O)Cn1ccc2ccccc2c1=O
  / | -1.0% | -0.1% | 2.6%
CCCc1nc2ccccc2c(=O)n1CC(=O)c1ccc(OC)cc1
  / | 2.0% | 1.7% | -6.3%
Cc1ccccc1N=C(NO)c1cccnc1
  / | -1.3% | 1.3% | -18.3%
CN1CCc2c(sc(NC(=O)c3ccc(S(=O)(=O)N4CCOCC4)cc3)c2C(N)=O)C1
  -10.8 | -5.2% | ? | ?
O=C1CN(C(=O)COC(=O)c2ccco2)c2ccccc2N1
  / | / | 0.4% | 3.2%
O=[N+]([O-])c1cccc(-c2nnn(C34CC5CC(CC(C5)C3)C4)n2)c1
  3.5 | -0.8% | 0.7% | 10.3%
CCc1cccc(NC(=O)C2CCCC2)c1
  -7.4 | -18.1% | 1.2% | 2.6%
CC(C)Cc1cc(C(=O)N2CCN(c3ccc(F)cc3)CC2)no1
  3.8 | 2.6% | 0.3% | 24.7%
COc1ccc(OC)c(NC2=C(Cl)C(=O)N(Cc3ccccc3)C2=O)c1
  5.8 | -0.4% | -1.1% | 11.1%
Fc1ccc(-c2[nH]ncc2-c2nnnn2-c2ccccc2)c(F)c1
  5.2 | -12.6% | -0.4% | -1.4%
COc1ccc(-c2nn(-c3ccccc3)cc2CO)cc1OC
  10.4 | -10.4% | -0.4% | 15.0%
COc1ccc(C(=O)NCC(c2cccs2)N2CCc3ccccc32)c(OC)c1 (stereo not given)
  / | / | 11.3% | 17.4%
O=C(COC(=O)c1cccnc1)Nc1ccccc1
  -2.1 | -1.6% | -1.0% | -8.5%
CCc1ccccc1N(C(=O)c1snc(C(N)=O)c1N)C(C(=O)NCC1CCCO1)c1ccc(OC)c(OC)c1 (stereo not given)
  / | 5.1% | -2.8% | -10.0%
CC(C)(C)OC(=O)N1CCCC1C(=O)N1CCc2ccccc21 (stereo not given)
  4.1 | 0.9% | -2.2% | 9.2%
Cc1ccc(N2C(=O)NC(NC(=O)C(C)(C)C)(C(F)(F)F)C2=O)cc1C (stereo not given)
  2.9 | -4.7% | -0.7% | 5.6%
COc1ccc(/C=N/NC(=O)CNC(=O)c2ccc3c(c2)OCCO3)c(C(=O)O)c1OC
  / | 0.4% | -0.8% | 5.9%
Cc1ncc([N+](=O)[O-])n1CC(=O)NC(C)(C)C
  -0.2 | -0.9% | 1.9% | -10.3%
O=C1[C@H]2[C@H](C=CC[C@H]2C(=O)N2CCOCC2)CCN1Cc1ccc(Cl)c(Cl)c1
  / | / | ? | 8.4%
O=C(Nc1nc(N2C(=O)c3ccccc3C2=O)n(-c2ccccc2)n1)c1ccc(Cl)cc1
  -7.8 | -8.8% | 0.9% | 0.6%
O=C(N/N=C/c1ccco1)c1cc(-c2cccs2)[nH]n1
  -0.4 | -19.9% | -0.1% | -1.0%
CSc1cccc(NC(=O)C2CCCN(c3ncnc4c3nc3n4CCCCC3)C2)c1 (stereo not given)
  / | -0.8% | 2.7% | -4.1%
Cc1ccc(C2N(c3cccc(Cl)c3)C(=O)C3CCCN32)o1 (stereo not given)
  -0.8 | -10.7% | -2.1% | 11.9%
Cc1ccc(Nc2nc(N3CCOCC3)nc(N3CCOCC3)n2)cc1
  -3.0 | -3.3% | -1.7% | 6.2%
CCCCc1ccc(NC(=O)CN(C)CC(=O)Nc2ccccc2Cl)cc1
  / | 0.8% | -1.9% | -2.0%
Cc1c(CC(=O)NCCCCCC(=O)O)c(=O)oc2cc3occ(-c4ccccc4)c3cc12
  / | -14.6% | -1.5% | -9.7%
O=C1OCCC1Sc1nc2ccccc2n1-c1ccccc1 (stereo not given)
  3.2 | -1.4% | -1.4% | 11.6%
CC(=O)c1ccc(N2CCN(C(=O)CCC(=O)Nc3ccc4nc(N5CCN(C)CC5)cc(C)c4c3)CC2)cc1
  / | 7.7% | 4.3% | -2.0%
CCN(CC(=O)Nc1ccccc1OC)C(=O)C1CC2C=CC1C2 (stereo not given)
  -3.5 | -2.0% | 1.2% | 1.9%

# Continuation:
# Results follow in this order: GLA inh pH 4.5 | miR-21 FLuc | Rango-impB inh | Rango release inh
Cc1nnsc1SCCNC(=O)c1c(F)cccc1F
  -3.2 | -9.6% | -5.1% | -18.2%
Cc1cc(S(=O)(=O)NCc2ccncc2)c(C)cc1Br
  / | 13.0% | 1.6% | -0.7%
NC(=O)c1ncn([C@@H]2O[C@H](CNCc3ccc(OCC(=O)Nc4nccs4)cc3)[C@@H](O)[C@H]2O)n1
  / | / | -2.3% | -6.8%
CCOC(=O)/C=C1\SCC(=O)N1CC(=O)NC(C)c1ccccc1 (stereo not given)
  3.5 | -2.7% | ? | -16.8%
Cc1ccc(Nc2nnc(C)c3ccccc23)c(C)c1
  / | / | -0.1% | -1.0%
CC(=O)Nc1ccc(NC(=O)CSC2=NS(=O)(=O)c3cc(F)ccc3N2)cc1
  / | / | 0.9% | -0.7%
O=C(Nc1ccc2c(c1)OCO2)c1ccc(S(=O)(=O)N2CCCC2)cc1
  -16.5 | -1.2% | 0.0% | 0.1%
CCOC(=O)c1ccc(NC(=S)NCCCN2CCN(C3CCCCC3)CC2)cc1
  -5.1[21.1 µM] | 2.9% | -1.7% | 4.1%
Cc1ccc(S(=O)(=O)N2CCN(c3ncccn3)CC2)c(C)c1
  / | -5.7% | 3.9% | 5.2%
O=C(NCCN1C(=O)S/C(=C\c2ccccc2F)C1=O)C1=COCCO1
  / | / | -0.5% | 5.5%
CC(C)CN1CCN(Cc2cccn2-c2ccccn2)CC1CCO (stereo not given)
  -19.7 | 3.0% | -0.2% | 1.0%
O=C(CN1CCN(Cc2ccc3c(c2)OCO3)CC1)N1CCc2[nH]c3ccc(F)cc3c2C1
  -3.2 | 6.6% | -1.5% | -13.0%
Cc1ccc(C)c(N(C(=O)CNC(=O)c2ccco2)C(C(=O)NCC2CCCO2)c2ccccc2)c1 (stereo not given)
  / | 8.9% | 0.6% | 0.8%
COc1ccc(C/C(C)=N/NC(=O)c2cc(C)oc2C)cc1
  7.3 | -30.2% | -2.5% | -21.8%
COc1ccc(C=C2c3ccccc3C(=O)c3ccccc32)c(OC)c1
  -3.6 | 26.3% | / | /
Cc1ccc(-c2nnn(CC(=O)N(c3ccc4c(c3)OCCO4)C(C(=O)NCC3CCCO3)c3ccc(F)cc3)n2)o1 (stereo not given)
  0.3 | 1.0% | 1.1% | -5.8%
c1ccc(-c2noc(C3CCCCC3)n2)nc1
  -1.1 | -42.3% | ? | 19.3%
COc1cc(C2=NOC(C(=O)N3CCN(c4ccc(F)cc4)CC3)C2)cc(OC)c1OC (stereo not given)
  -7.0 | 2.9% | 7.1% | 3.8%
CCc1ccccc1N(C(=O)CNC(=O)c1ccco1)C(C(=O)NC1CCCC1)c1cccnc1 (stereo not given)
  / | -0.6% | -0.6% | 28.7%
CC(=C\c1ccccc1)/C=C1/SC(=S)N(C(C(=O)O)C(C)C)C1=O (stereo not given)
  -10.4 | -5.7% | 0.7% | 6.2%
CN(CC(=O)Nc1ccccc1Cl)C(=O)COC(=O)c1ccc(Cl)nc1
  / | / | -2.0% | 12.8%
Cc1ccc(S(=O)(=O)N2CCOCC2)cc1NC(=O)COC(=O)COc1cccc2c1OC(C)(C)C2
  / | / | 4.3% | 3.0%
CN1CCN(c2nc3nonc3nc2N2CCN(C)CC2)CC1
  -14.4 | -3.2% | -0.4% | 0.9%

# 2 records drawn at random from those above, as already listed:
# Results follow in this order: GLA inh pH 4.5 | miR-21 FLuc | Rango-impB inh | Rango release inh
Cc1ccc(Nc2nnc(C)c3ccccc23)c(C)c1
  / | / | -0.1% | -1.0%
Cc1ccc(S(=O)(=O)N2CCOCC2)cc1NC(=O)COC(=O)COc1cccc2c1OC(C)(C)C2
  / | / | 4.3% | 3.0%
